# Screening results deposited in PubChem by several laboratories.
# Mtb bLac sens = beta-lactam sensitization of Mtb H37Rv; M. tuberculosis H37Rv growth with meropenem, percent inhibition; hits of this screen are not shown here; inhibition, % at 25 µM; 330,000 tested, 0.27% active; AID 434955;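 active = about 74% or more and at least 40 points above the plate without the antibiotic, then above 30% in a dose series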;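 note: growth measured after seven days incubation then overnight dye step; 0% = bacteria only wells and 100% = bacteria with antibiotic; twin plates without the antibiotic show which effects depend on it; some results filed as inactive read as strong as hits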
# Mtb H37Rv = M. tuberculosis H37Rv growth inhibitors, H37Rv strain (AID 1626); M. tuberculosis H37Rv growth inhibition; higher % means a stronger effect; inhibition, % at 10 µM, or IC50 in µM where a hit was titrated; 220,000 tested, 0.95% active;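 active = confirmed in a dose series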;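 note: bacteria incubated seven days before Alamar blue readout; 0% = bacteria only wells and 100% = bacteria with antibiotic wells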
# YopH inh = blocks Yersinia enterocolitica YopH tyrosine phosphatase; fluorescence Ex485/Em525; inhibition, %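 (about 10 µM by stock and volumes)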; 140,000 tested, 0.16% active; AID 898;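 active = inhibition of 50% or more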;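 note: controls were vehicle for no effect and minimum signal wells for full effect; inactives centre near -20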
# Arbovirus inh = antivirals against arbovirus infection | 200,000 tested, 0.37% active | arbovirus infection cell-based antiviral screen | AID 1251 | inhibition, % at 10 µM;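 active = inhibition from about 30%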;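 note: bluetongue infection of BSR cells; cell survival read as ATP light after 72 h; 0% = infected wells without compound and 100% = uninfected wells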
# RecA intein inh = blocks M. tuberculosis RecA intein splicing | inhibition, %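 (about 9 µM by stock and volumes)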 | cell-free RecA intein splicing, fluorescence | 290,000 tested, 0.75% active | P9WHJ3; in the data active = inhibition above about 30%;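 note: 0% = vehicle wells and 100% = reference inhibitor control wells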
# Target sequence (P9WHJ3 whole entry, looked up): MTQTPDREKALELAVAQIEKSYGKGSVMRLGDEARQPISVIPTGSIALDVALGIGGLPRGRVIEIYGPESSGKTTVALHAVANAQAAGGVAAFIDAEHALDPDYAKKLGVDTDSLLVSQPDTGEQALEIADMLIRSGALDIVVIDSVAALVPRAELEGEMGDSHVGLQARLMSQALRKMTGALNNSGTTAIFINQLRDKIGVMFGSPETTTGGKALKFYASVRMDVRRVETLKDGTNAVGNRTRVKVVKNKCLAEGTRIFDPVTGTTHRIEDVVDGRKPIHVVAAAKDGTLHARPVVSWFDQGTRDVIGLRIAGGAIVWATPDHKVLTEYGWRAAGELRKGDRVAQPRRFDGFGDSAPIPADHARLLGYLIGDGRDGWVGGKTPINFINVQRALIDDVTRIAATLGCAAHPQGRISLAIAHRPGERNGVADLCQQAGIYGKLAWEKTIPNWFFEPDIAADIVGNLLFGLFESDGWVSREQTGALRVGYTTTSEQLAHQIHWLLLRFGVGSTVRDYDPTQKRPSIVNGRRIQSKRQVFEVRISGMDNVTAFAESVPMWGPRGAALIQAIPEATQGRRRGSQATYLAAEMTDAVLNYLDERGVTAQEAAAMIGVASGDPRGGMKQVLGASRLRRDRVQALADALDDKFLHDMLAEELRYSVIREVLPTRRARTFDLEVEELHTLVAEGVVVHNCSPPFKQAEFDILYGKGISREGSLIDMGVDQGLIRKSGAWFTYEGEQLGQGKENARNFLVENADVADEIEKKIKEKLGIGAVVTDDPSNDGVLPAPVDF
# Arbovirus inh repeat = also measured in Arbovirus inh; calls as there; inhibition, %; measured here: 10K subset replicate screen; many hits read low in the repeat;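 first of two repeat runs on a subset; 0% = infected and 100% = uninfected wells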
# Starred values were filed as active, the others as inactive; / = not tested or not shown. Some of the compounds tested; rates above refer to the full screens.
SMILES,Mtb bLac sens,Mtb H37Rv,YopH inh,Arbovirus inh,RecA intein inh,others
CCN1/C(=C/C=C/c2sc3ccccc3[n+]2CC)Sc2ccccc21,81,/,/,/,20,
COc1ccc(S(=O)(=O)N(C)C)cc1NC(=O)CCCSc1ccccc1,2,/,/,/,-0.9,
COc1ccccc1-c1ccc(=O)n(CC(=O)Nc2ccc(C(=O)N3CCCC3)cc2)n1,-2,-2%,-6,11,2.4,
COC(=O)c1ccc(/C=N/NC(=O)CC(=O)NC(C)C)cc1,6,-2%,-30,17,1.0,
O=C(OCc1ccc(Cl)cc1)c1ccccc1C(=O)c1ccccc1,7,-5%,-47,0,14,
O=C(Nc1nc2n(n1)C(c1ccc(Cl)cc1)CC(c1ccc(Cl)cc1)N2)c1ccco1 (stereo unspecified),99,17%,-26,-42,-0.6,
COc1ccc(-c2noc(CN(C)S(=O)(=O)c3ccccc3)n2)cc1OC,5,3%,-34,/,0.6,
COc1ccccc1NCN1C(=O)CCC1=O,8,/,/,7,-2.5,Arbovirus inh repeat=3
O=C(CSc1nc2[nH]ncc2c(=O)[nH]1)Nc1cccc(Cl)c1,-13,/,/,/,-1.2,
O=c1[nH]c(=O)n(Cc2ccccc2Cl)c(O)c1C=Nc1ccc(F)cc1,4,4%,/,8,-1.9,
CSc1ccc(-c2cccc([N+](=O)[O-])c2)nn1,-1,4%,/,3,-3.7,
O=C(O)c1cccc(CSc2nnc(COc3ccccc3)o2)c1,-3,2%,-26,18,-0.6,

# Looked up by compound from the entries so far, six records:
SMILES,Mtb bLac sens,Mtb H37Rv,YopH inh,Arbovirus inh,RecA intein inh,others
COc1ccc(S(=O)(=O)N(C)C)cc1NC(=O)CCCSc1ccccc1,2,/,/,/,-0.9,
CCN1/C(=C/C=C/c2sc3ccccc3[n+]2CC)Sc2ccccc21,81,/,/,/,20,
CSc1ccc(-c2cccc([N+](=O)[O-])c2)nn1,-1,4%,/,3,-3.7,
COC(=O)c1ccc(/C=N/NC(=O)CC(=O)NC(C)C)cc1,6,-2%,-30,17,1.0,
O=C(Nc1nc2n(n1)C(c1ccc(Cl)cc1)CC(c1ccc(Cl)cc1)N2)c1ccco1 (stereo unspecified),99,17%,-26,-42,-0.6,
COc1ccc(-c2noc(CN(C)S(=O)(=O)c3ccccc3)n2)cc1OC,5,3%,-34,/,0.6,

# Next compounds.
SMILES,Mtb bLac sens,Mtb H37Rv,YopH inh,Arbovirus inh,RecA intein inh,others
CC1CCC(C)(NS(=O)(=O)OCC(Cl)(Cl)Cl)CC1 (stereo unspecified),-4,/,/,/,6.6,
CCCCC(=O)NC(=O)NC(c1ccccc1)c1ccccc1,-3,10%,/,/,1.2,
Cc1cc(C)cc(NCc2cc(=O)oc3cc(-c4ccccc4)c(O)cc23)c1,5,57%,-20,7,-9.5,
Cc1nc(NC(=O)/C=C/c2ccccc2)sc1C(=O)Nc1ccccc1,-2,1%,-28,-3,-3.6,
COc1ccccc1CNC(=O)COC(=O)c1cccc(S(=O)(=O)N2CCOCC2)c1,1,/,/,/,-2.7,
Cc1ccc(NCc2nc(SCC(=O)Nc3ccccc3)n[nH]2)cc1,1,/,/,/,-1.1,
O=C(O)CCSc1nc2ccccc2n1CCOc1ccccc1,4,2%,-35,4,-2.5,
CC(=O)Nc1ccccc1Sc1ccc2c3c(cccc13)C(=O)N(c1ccc(C)cc1)C2=O,-5,4%,-8,-8,-1.2,
CC(NC(=O)COC(=O)c1cc(NS(=O)(=O)c2ccc(Cl)c([N+](=O)[O-])c2)ccc1O)C1CC2CCC1C2 (stereo unspecified),1,2%,-35,-31,48*,
CCn1c(SCC(=O)O)nc2ccccc21,-1,-2%,/,-2,-1.2,
CCN(CC)S(=O)(=O)c1cccc(C(=O)OCC(=O)NC(C)c2ccccc2)c1 (stereo unspecified),-3,4%,/,5,5.8,
Cc1ccc2[nH]c(=O)c(C(c3nnnn3C(C)(C)C)N3CCN(C(=O)c4ccco4)CC3)cc2c1 (stereo unspecified),-6,-4%,-22,15,-8.4,
O=C1CCCC2=C1C1(O)C(=O)c3ccccc3C1(O)O2 (stereo unspecified),-6,-1%,99*,-8,89*,Arbovirus inh repeat=-4
CCC1Oc2ccc(C)cc2N(CC(=O)N2CCOCC2)C1=O (stereo unspecified),4,/,/,/,0.5,
Cc1ccc2nc(-c3ccccc3NC(=O)CCC(=O)O)c(=O)[nH]c2c1,12,/,/,/,-4.0,
O=C(CC12CC3CC(CC(C3)C1)C2)NCCN1CCOCC1,-7,-1%,-21,10,1.8,
O=C(c1ccccc1F)N1CCN(c2ccc([N+](=O)[O-])c(NCC3CCCO3)c2)CC1 (stereo unspecified),4,-1%,/,-7,2.1,
COc1cccc(CN2CCc3[nH]c(=S)[nH]c(=O)c3C2)c1,-6,/,/,/,2.7,
CCOCCCN1C(=O)CN(C2CCCCC2)C(=O)C1c1ccc(OCC)c(OC)c1 (stereo unspecified),0,-8%,-19,3,-0.9,
NC(=O)C(CC(=O)O)NC(=O)[C@@H]1CCOc2c(I)cc([N+](=O)[O-])cc2C(=O)N[C@@H](CCC(=O)O)C(=O)N[C@@H](CO)C(=O)N1 (stereo partly specified),-14,-3%,-24,-3,/,
CCN(CC)c1ccc([N+](=O)[O-])cc1C(=O)N1CCOCC1,-7,0%,/,2,3.4,
C[C@@H](CN1C2=NC[C@H](C)N2C[C@H]1Cc1ccc(O)cc1)NC(=O)CCC1CCCCC1,1,0%,/,5,0.8,
CCN(CC)C(=S)NCCc1ccccc1,3,4%,/,2,1.7,
Cc1ccc(-c2nnc(SCC(C)C)n2C)cc1,-5,-2%,-14,-6,0.5,
CC(=O)NC(Cc1ccc(F)cc1)C(=O)NC1CCN(C(=O)NCc2ccccc2)CC1 (stereo unspecified),0,/,/,/,-2.3,
COc1cc(C2NC(=S)NC(c3ccccc3)=C2C(C)=O)ccc1O (stereo unspecified),0,4%,/,4,3.7,
COc1ccc(/C=C/C(=O)NCCOc2ccc(C)cc2)cc1,-6,-6%,-19,0,-2.7,
Cc1ccc(-c2cc(C(=O)NCc3ccco3)c3ccccc3n2)s1,2,12%,-17,-3,6.3,
CC12CC(NC(=O)N1c1cccc(C(=O)NCc3ccccc3)c1)c1ccccc1O2 (stereo unspecified),-2,/,-22,9,-0.2,
O=C(c1ccco1)N1CCN(C(=O)c2cc3cc([N+](=O)[O-])ccc3oc2=O)CC1,0,-12%,/,1,-1.3,
COc1ccc2c(C)c(CC(=O)N3C[C@H]4C[C@@H](C3)c3cccc(=O)n3C4)c(=O)oc2c1OC,-3,/,/,/,0.2,
Cc1ccc(-n2c(SCC(=O)Nc3ccc4c(c3)OCCO4)nnc2-c2ccco2)cc1,0,3%,-17,-4,-0.7,
O=C(NCCN1CCOCC1)C1CC(=O)N(c2ccc(F)cc2)C1 (stereo unspecified),2,/,/,/,2.0,
CC(=O)c1sc2nc(-c3ccco3)ccc2c1N,2,6%,/,/,-56,
COc1ccc(C(=O)NC(=S)NCc2ccccc2)cc1OC,-4,-3%,/,6,-2.0,
CCOC(=O)[C@@H]1[C@H]2COc3ccc(Br)cc3[C@@H]2N2C(=O)N(c3ccccc3)C(=O)[C@@]12C,-7,/,/,/,3.2,

# Continued; it opens with the four that closed the last part.
SMILES,Mtb bLac sens,Mtb H37Rv,YopH inh,Arbovirus inh,RecA intein inh,others
O=C(NCCN1CCOCC1)C1CC(=O)N(c2ccc(F)cc2)C1 (stereo unspecified),2,/,/,/,2.0,
CC(=O)c1sc2nc(-c3ccco3)ccc2c1N,2,6%,/,/,-56,
COc1ccc(C(=O)NC(=S)NCc2ccccc2)cc1OC,-4,-3%,/,6,-2.0,
CCOC(=O)[C@@H]1[C@H]2COc3ccc(Br)cc3[C@@H]2N2C(=O)N(c3ccccc3)C(=O)[C@@]12C,-7,/,/,/,3.2,
CC(=O)NNC(=S)Nc1cc(S(=O)(=O)N(C)C)ccc1C,3,3%,-4,1,-1.8,
C/C(CC(=O)NC(C)c1ccccc1)=N\NC(N)=S (stereo unspecified),9,-3%,/,/,-1.6,
Cc1ccc(NC(=O)CN(C)C(=O)Cc2ccc(Cl)c(Cl)c2)cc1,0,/,/,/,0.0,
COc1cc2c3c(c1OC)C1(C=CC(=NNC(N)=O)C=C1)CC3N(C(C)=O)CC2 (stereo unspecified),3,-8%,-22,2,-0.3,
CCc1nnc(NC(=O)CSc2nnc(C3CCCCC3)n2-c2ccccc2)s1,3,-15%,-27,-2,0.2,
Cc1ccccc1N1CCN(C2CCCN(C(=O)CCn3cnnn3)C2)CC1 (stereo unspecified),-18,/,/,/,-0.2,
COc1ccc(C(=O)N/C(=C\c2ccccc2)C(=O)N2CCOCC2)cc1,-3,/,/,/,1.3,
O=C(CCCOC(=O)c1ccc(O)cc1O)c1ccc(F)cc1,-7,/,/,/,0.2,
O=C(CSc1nnc(Cc2cc(=O)[nH]c(=O)[nH]2)n1-c1ccccc1)N1CCCCC1,-1,-3%,-46,2,-0.4,Arbovirus inh repeat=-1
CC(C)Oc1cccc(OCCN2C(=O)c3ccccc3C2=O)c1,10,1%,/,-3,-0.2,
CCOc1ccc(NC(=O)c2sc(N3CCOCC3)nc2-c2ccccc2)cc1,1,9%,-3,11,-1.3,
NC(=O)c1cc(S(=O)(=O)NCCCc2ccccc2)cs1,-6,/,/,/,-1.6,
CC[n+]1c(C)sc2c3ccsc3ccc21,-3,3%,/,14,0.5,
CN(CC(=O)N1CCN(c2cccc(Cl)c2)CC1)S(=O)(=O)c1cccs1,-2,5%,-33,0,0.4,
Cn1c(=O)c(=O)n(C)c2cc(S(=O)(=O)N3CCN(c4ccc(F)cc4)CC3)ccc21,-2,6%,-9,3,-0.6,
CCOC(=O)C1CCN(C(=O)COc2ccc(S(=O)(=O)NC(C)(C)C)cc2)CC1,3,0%,2,5,4.9,
O=C(NCC(=O)N1CCCC(C(F)(F)F)C1)c1ccc(Oc2ccccc2)cc1 (stereo unspecified),2,/,/,/,3.6,
CCOC(=O)CC(NC(=O)c1cc2cc(Br)ccc2oc1=O)c1cccc([N+](=O)[O-])c1 (stereo unspecified),-3,9%,10,-5,0.7,
O=C1CCCc2sccc2N1,-1,-10%,-22,-2,1.1,Arbovirus inh repeat=-3
COC(=O)CCC(=O)CN,1,-7%,-24,4,0.8,
O=C(Nc1nc(-c2ccc(Cl)s2)cs1)c1ccccc1,63,12%,0,9,13,
CC(NC(=O)c1cc2ccccc2o1)C(=O)O (stereo unspecified),14,-3%,-23,5,-7.5,
Cc1nc(SCc2ccccc2C#N)n[nH]1,-6,/,/,/,1.7,
Cc1oc(-c2ccoc2)nc1CN(CC1CCC(=O)N1)C(C)C (stereo unspecified),-3,-3%,/,1,-0.7,
